Mtb betalactam = beta-lactam sensitization of Mtb H37Rv, H37Rv | inhibition, % at 25 µM | 0.27% of 330,000 active | M. tuberculosis H37Rv growth with meropenem, percent inhibition; hits of this screen are not shown here;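 active means about 74% or more and at least 40 points above the plate without the antibiotic, then above 30% in a dose series; inconclusive means first-round hits that could not be retested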;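 further: growth measured after seven days incubation then overnight dye step; 0% = bacteria only wells and 100% = bacteria with antibiotic; twin plates without the antibiotic show which effects depend on it; some results filed as inactive read as strong as hits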
YopH PTP inh = YopH tyrosine phosphatase inhibitors, primary screen, biochemical, fluorescence Ex485/Em525; YopH tyrosine phosphatase [Yersinia enterocolitica]; inhibition, %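 (about 10 µM by stock and volumes)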; 0.16% of 140,000 active; AID 898, 2007;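 active means inhibition of 50% or more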;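 further: controls were vehicle for no effect and minimum signal wells for full effect; inactives centre near -20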
Mtb growth = M. tuberculosis H37Rv growth inhibitors, H37Rv strain (AID 1626); M. tuberculosis H37Rv growth inhibition; higher % means a stronger effect; inhibition, % at 10 µM, or IC50 in µM where a hit was titrated; 0.95% of 220,000 active;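 active means confirmed in a dose series; inconclusive means inhibition above 80% but not taken into the dose series; inactive means below 80% or under 30% at every dose of the series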;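 further: bacteria incubated seven days before Alamar blue readout; 0% = bacteria only wells and 100% = bacteria with antibiotic wells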
Arbovirus inh = antivirals against arbovirus infection, primary screen, cell-based, full library, 10K replicate subset | arbovirus infection cell-based antiviral screen | inhibition, % at 10 µM | 0.37% of 200,000 active;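 active means inhibition from about 30%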;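 further: bluetongue infection of BSR cells; cell survival read as ATP light after 72 h; 0% = infected wells without compound and 100% = uninfected wells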
RecA intein inh = Mtb RecA intein splicing inhibitors, primary screen, biochemical, fluorescence, HTS; Protein RecA (Mycobacterium tuberculosis (strain ATCC 25618 / H37Rv)), P9WHJ3; cell-free RecA intein splicing; inhibition, %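 (about 9 µM by stock and volumes)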; 0.75% of 290,000 active; in the data active means inhibition above about 30%; inconclusive means no clear call, values can overlap the other calls;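 further: 0% = vehicle wells and 100% = reference inhibitor control wells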
Target sequence (P9WHJ3 whole entry, looked up): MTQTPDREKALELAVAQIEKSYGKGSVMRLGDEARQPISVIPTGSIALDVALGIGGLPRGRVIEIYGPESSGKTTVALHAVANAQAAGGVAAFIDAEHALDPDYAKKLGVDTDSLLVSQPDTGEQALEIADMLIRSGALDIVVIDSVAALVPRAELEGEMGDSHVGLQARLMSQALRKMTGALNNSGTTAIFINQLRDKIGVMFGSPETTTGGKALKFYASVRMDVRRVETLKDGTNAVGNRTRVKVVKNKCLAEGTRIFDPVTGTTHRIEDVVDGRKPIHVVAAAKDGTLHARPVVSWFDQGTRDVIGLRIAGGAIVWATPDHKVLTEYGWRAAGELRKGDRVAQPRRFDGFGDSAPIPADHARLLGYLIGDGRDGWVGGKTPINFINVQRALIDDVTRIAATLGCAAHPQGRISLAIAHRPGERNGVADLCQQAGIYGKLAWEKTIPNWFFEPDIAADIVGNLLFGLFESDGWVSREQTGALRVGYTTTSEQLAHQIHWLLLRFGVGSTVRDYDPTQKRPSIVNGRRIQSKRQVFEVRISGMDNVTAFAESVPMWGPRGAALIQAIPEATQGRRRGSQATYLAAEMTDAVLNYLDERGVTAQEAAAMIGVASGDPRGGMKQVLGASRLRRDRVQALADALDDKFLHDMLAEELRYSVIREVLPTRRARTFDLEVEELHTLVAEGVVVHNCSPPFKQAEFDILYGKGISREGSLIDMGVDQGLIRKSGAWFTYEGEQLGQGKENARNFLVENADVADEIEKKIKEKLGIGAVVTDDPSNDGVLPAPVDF
Arbovirus inh repeat = recorded beside Arbovirus inh, whose call it bears; inhibition, %; measured here: 10K subset replicate screen; many hits read low in the repeat;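 first of two repeat runs on a subset; 0% = infected and 100% = uninfected wells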
An asterisk follows results filed as active; ? = inconclusive; . = not tested or not shown.

SMILES	Mtb betalactam	YopH PTP inh	Mtb growth	Arbovirus inh	RecA intein inh	others
N#Cc1ccc(CSc2nc(N)cc(N)n2)cc1	6.3	.	.	.	1.9
CC1(NC(=O)c2cccc(S(=O)(=O)N3CCN(c4ccc(F)cc4)CC3)c2)CCS(=O)(=O)C1 (configuration not stated)	-14.6	.	.	.	1.7
COc1ccc(C(=O)OCC(=O)c2ccc(Br)s2)c(OC)c1	29.1	.	.	.	-1.3
CC1(c2ccccc2)NC(=O)N(CC(=O)NC(=O)NCc2ccco2)C1=O (configuration not stated)	-4.3	-7.0	-11.3%	-1.6	1.8
COc1ccc(NC(=O)c2cc(-c3ccccc3O)n[nH]2)cc1Cl	2.4	.	.	.	-0.5
CC1CCN(c2ccc(C(=O)O)cc2)CC1	-4.8	-10.1	6.3%	9.4	0.8
O=C(NNc1c(Cl)cncc1Cl)c1cccs1	10.8	.	-9.7%	.	.
C/C(=N\NC(=O)C(c1ccncc1)N1CCOCC1)c1ccc(Br)cc1 (configuration not stated)	-6.3	-18.9	0.0%	-4.5	-1.2
O=c1ccc(-c2ccccc2)nn1Cc1ccccc1	0.3	.	.	.	3.3
O=C(c1cc(-c2ccc(Cl)c(Cl)c2)on1)N1CCOCC1	8.8	.	.	.	-0.4
N#C/C(=N\Nc1cc(Cl)cc(Cl)c1)c1nnc2n1CCCCC2	5.4	-14.6	65.9%	-10.0	-3.3
O=C(CSc1nc2ccccc2s1)N/N=C/c1ccco1	41.0	-20.1	-13.1%	0.0	-2.5

By substructure, the entries above containing a thiophene ring, fused or not (two)
SMILES	Mtb betalactam	YopH PTP inh	Mtb growth	Arbovirus inh	RecA intein inh	others
COc1ccc(C(=O)OCC(=O)c2ccc(Br)s2)c(OC)c1	29.1	.	.	.	-1.3
O=C(NNc1c(Cl)cncc1Cl)c1cccs1	10.8	.	-9.7%	.	.

(further entries)
SMILES	Mtb betalactam	YopH PTP inh	Mtb growth	Arbovirus inh	RecA intein inh	others
CCCCNC(=O)C1(NC(=O)Nc2ccc(C)cc2)CCCCC1	-3.2	.	-0.2%	6.0	-0.5
Cc1ccc(N(CC(=O)N/N=C/c2cccs2)S(C)(=O)=O)cc1	-3.5	-28.4	-2.7%	1.0	-0.1
CCc1cc(C(=O)NNC(=S)NC(C)c2ccccc2)cs1 (configuration not stated)	-3.2	-33.9	-2.0%	1.0	5.8
O=C(O)Cn1cc(/C=C2\C(=O)NC(=O)N(Cc3ccco3)C2=O)c2ccccc21	-7.2	.	1.4%	4.8	-1.2
CCN(C(=O)c1cn(C)c(=O)c2cc(OC)c(OC)cc12)c1cc(C)ccc1C	1.3	-31.2	-3.9%	4.8	-1.4
CCc1ccc(N2CCN(S(=O)(=O)CC34CCC(CC3=O)C4(C)C)CC2)cc1 (configuration not stated)	-2.0	.	.	.	-1.7
COc1ccc(N(C(C)C(=O)NCCSCc2cccc(Cl)c2)S(C)(=O)=O)cc1 (configuration not stated)	-4.1	.	.	.	2.4
CSc1ncc(CN2CCc3c([nH]c4ccccc34)C2C(C)(C)C)cn1 (configuration not stated)	5.8	.	.	.	6.7
O=C(COC(=O)c1nc(Cl)ccc1Cl)NC1CCCCCC1	-9.6	.	.	.	1.5
Cn1c(=O)c2c(SCc3ccccc3)nc(C3CC3)nc2n(C)c1=O	-7.2	.	1.9%	.	1.3
O=C(Nc1ccncc1)c1cccc(S(=O)(=O)N2CCOCC2)c1	-2.2	.	.	.	0.1
CCN(CC)CCCN1C(=O)C(O)=C(C(=O)c2cc3cccc(OC)c3o2)C1c1ccncc1 (configuration not stated)	?	-28.4	-8.0%	-3.0	0.4

Taken from above for reference:
SMILES	Mtb betalactam	YopH PTP inh	Mtb growth	Arbovirus inh	RecA intein inh	others
CCCCNC(=O)C1(NC(=O)Nc2ccc(C)cc2)CCCCC1	-3.2	.	-0.2%	6.0	-0.5
Cc1ccc(N(CC(=O)N/N=C/c2cccs2)S(C)(=O)=O)cc1	-3.5	-28.4	-2.7%	1.0	-0.1
CCc1cc(C(=O)NNC(=S)NC(C)c2ccccc2)cs1 (configuration not stated)	-3.2	-33.9	-2.0%	1.0	5.8
O=C(O)Cn1cc(/C=C2\C(=O)NC(=O)N(Cc3ccco3)C2=O)c2ccccc21	-7.2	.	1.4%	4.8	-1.2
CCN(C(=O)c1cn(C)c(=O)c2cc(OC)c(OC)cc12)c1cc(C)ccc1C	1.3	-31.2	-3.9%	4.8	-1.4
CCc1ccc(N2CCN(S(=O)(=O)CC34CCC(CC3=O)C4(C)C)CC2)cc1 (configuration not stated)	-2.0	.	.	.	-1.7

Next compounds:
SMILES	Mtb betalactam	YopH PTP inh	Mtb growth	Arbovirus inh	RecA intein inh	others
N#C/C(=C\c1ccccc1)C(=O)NC(=O)Oc1ccccc1	-11.6	-50.3	4.3%	11.7	-0.3
COC(=O)Cc1c(C)nc2nc(-c3ccc(C)cc3)[nH]n2c1=O	9.4	-17.1	-0.3%	-4.0	-1.0
O=c1oc2ccccc2n1CSc1nc2ccccc2s1	-1.3	-25.5	12.2%	4.6	4.0
CCCCOc1ccc(C(=O)OC(C)CN(C)C)cc1 (configuration not stated)	6.2	-28.4	.	3.1	1.9
CCOC(=O)C1=C(c2ccccc2)NC(=O)NC1c1cc(OC)c(O)c([N+](=O)[O-])c1 (configuration not stated)	3.1	.	.	.	-0.8
CCOC(=O)c1nc(N/N=C/c2ccccc2)sc1Br	4.0	.	.	.	-0.3
Cc1ccnc(N2C(=O)c3ccccc3C2=O)c1	-5.0	.	.	.	-0.6
C/C(=N\Nc1ccc(C#N)cc1[N+](=O)[O-])c1ccc(O)cc1	-2.5	.	3.2%	.	7.1
OC(COc1ccc2cc(Br)ccc2c1)CN1CCN(c2ccccn2)CC1 (configuration not stated)	96.0	15.9	-1.8%	11.1	1.7
CCOc1ccc(Br)cc1C(=O)N/N=C/c1c[nH]c2ccccc12	6.1	.	.	.	-1.7
Cc1n[nH]c(=O)c2c(NC(=O)CSc3nnnn3-c3ccccc3)oc(C)c12	-4.1	.	.	.	5.0
COc1ccccc1NC(=O)Cn1nnc(-c2ccccc2NC(=O)c2cccs2)n1	8.5	-26.1	-1.7%	4.9	-1.0

The final 2 records of the section above lead into the next.
SMILES	Mtb betalactam	YopH PTP inh	Mtb growth	Arbovirus inh	RecA intein inh	others
Cc1n[nH]c(=O)c2c(NC(=O)CSc3nnnn3-c3ccccc3)oc(C)c12	-4.1	.	.	.	5.0
COc1ccccc1NC(=O)Cn1nnc(-c2ccccc2NC(=O)c2cccs2)n1	8.5	-26.1	-1.7%	4.9	-1.0
CCc1ccc2nc3sc(C(=O)O)cc3cc2c1	0.5	.	-9.7%	5.2	-2.1
Cc1c(C)[n+](=O)c(-c2ccc(F)cc2)c(C)n1[O-]	3.7	-41.0	-7.7%	1.0	3.7	Arbovirus inh repeat=2.5
COc1ccc(Br)cc1CN(C)C(=O)Cc1ccc(S(=O)(=O)N2CCOCC2)s1	-17.7	.	.	.	-2.5
COc1ccc(CN(C(=O)CN2C(=O)COc3ccccc32)C2CCCC2)c(OC)c1	-16.0	-29.6	6.1%	-15.1	10.4
Cc1cc(C)nc(-n2nc(C)c3c(C(=O)O)cc(-c4cccc(Br)c4)nc32)n1	2.9	.	3.2%	.	-0.2
Cc1cccc(NC(NC(=O)c2cccnc2)C(Cl)(Cl)Cl)c1 (configuration not stated)	?	5.2	-9.8%	5.4	-2.1
Cc1ccc(-c2nnn(CC(=O)N(CCN3CCOCC3)C(C(=O)NC3CCCC3)c3ccncc3)n2)o1 (configuration not stated)	-3.2	.	-6.6%	1.7	-3.0
O=C1C2ON(c3ccccc3)C(c3cccnc3)C2C(=O)N1c1ccc(Cl)c(Cl)c1 (configuration not stated)	-2.8	-29.5	-8.1%	-3.1	0.7
CC(Sc1c[nH]c2ccccc12)C(=O)O (configuration not stated)	1.7	-27.5	-0.7%	5.9	-0.1
CC(NC(=O)CN1CCN(c2ccc(Cl)cc2)CC1)c1ccccc1 (configuration not stated)	-10.2	.	.	.	0.9
CC(=O)C1=C(O)C(=O)N(Cc2ccccc2)C1c1ccc(Cl)cc1 (configuration not stated)	-2.7	.	.	.	3.0
CCCCCOC(=O)Nc1ccc(S(=O)(=O)Nn2cnnc2)cc1	0.8	-3.0	-4.6%	2.5	-1.3
CCC1CCC/C1=N\NC(=O)c1ccccc1C (configuration not stated)	-2.4	.	.	.	-0.3
COc1cc(OC)c(C2=NOC(C(=O)NCc3cccs3)C2)cc1Cl (configuration not stated)	-5.0	.	1.5%	-18.4	-0.5
CCOc1ccc(C(=O)N(Cc2ccccc2)c2cccc(C)c2)cc1OC	-1.4	.	.	.	11.9
COc1ccc(CCNC(=O)c2ccc(N(C)S(=O)(=O)c3ccc(C)cc3)cc2)cc1	10.4	.	7.8%	3.4	2.2
CN(C)S(=O)(=O)c1cccc(C(=O)OCC(=O)NC2CCCc3ccccc32)c1 (configuration not stated)	6.5	-7.2	2.5%	-0.9	-1.2
CSCCC1NC2(C(=O)Nc3c2ccc(Cl)c3C)[C@@H]2C(=O)N(C3CCCC3)C(=O)[C@H]12 (some centres not stated)	27.5	-26.3	-0.9%	15.6	0.1
Cc1cccc(NC(=O)c2cc3c(s2)-c2c(C)cccc2OC3)n1	-5.7	.	-4.0%	.	-14.4
Cc1c(O)ccc(C(=O)COc2ccccc2F)c1O	3.7	-25.0	-3.0%	12.1	-0.9
COc1cc(C(=S)N2CCOCC2)cc(OC)c1OC(=O)c1ccc(C)cc1	4.2	.	.	.	2.7
COc1ccccc1N(CN1C(=O)c2ccccc2C1=O)C(=O)c1cccnc1	5.0	-20.7	-4.6%	-2.1	1.1
COCCNC(=O)CN(C(=O)Cn1nnc2ccccc21)c1ccc(F)c(Cl)c1	0.4	-18.2	-4.0%	0.8	-1.5
CC1CCCCN1C(=O)COc1ccc2ccc(=O)oc2c1 (configuration not stated)	0.8	.	6.3%	-0.5	-2.9

3 structures out of the list, ordered by count of non-hydrogen atoms, lowest first:
SMILES	Mtb betalactam	YopH PTP inh	Mtb growth	Arbovirus inh	RecA intein inh	others
COc1cc(OC)c(C2=NOC(C(=O)NCc3cccs3)C2)cc1Cl (configuration not stated)	-5.0	.	1.5%	-18.4	-0.5
COCCNC(=O)CN(C(=O)Cn1nnc2ccccc21)c1ccc(F)c(Cl)c1	0.4	-18.2	-4.0%	0.8	-1.5
CSCCC1NC2(C(=O)Nc3c2ccc(Cl)c3C)[C@@H]2C(=O)N(C3CCCC3)C(=O)[C@H]12 (some centres not stated)	27.5	-26.3	-0.9%	15.6	0.1

Going on with the list.
SMILES	Mtb betalactam	YopH PTP inh	Mtb growth	Arbovirus inh	RecA intein inh	others
CCOC(=O)c1c2c3c(c(Cl)ccc3[nH]c1=O)C(=O)c1ccccc1-2	.	.	6.3%	-10.0	10.7
CCC12CN(C(=O)c3ccco3)CC(CC)(CN(C(=O)c3ccco3)C1)C2=O	-4.8	.	.	.	1.0
COc1c(O)ccc2c1-c1c3c(cc4c1C(C2)N(C)CC4)OCO3 (configuration not stated)	13.5	-4.3	-1.6%	10.9	-2.7
C=CCn1c(=O)c(C(=O)Nc2ccccc2S(N)(=O)=O)c(O)c2ccccc21	6.3	.	-2.9%	7.8	-0.1
CCOc1cccc(C(=O)Nc2ccc3oc(Cc4ccc(Cl)cc4)nc3c2)c1	98.0	-10.9	75.3%	-20.6	3.1
COC(C(=O)Nc1ccc(NC(=O)C(OC)c2ccccc2)cc1)c1ccccc1 (configuration not stated)	0.8	.	.	.	-0.3
Cc1cccc(NC(=O)CSc2nc(=O)n(CCN3CCOCC3)c3c2CCCC3)c1C	-3.3	.	.	.	-0.9
COC(=O)CN1C(c2ccc(OC)cc2)=Nc2ccc(Cl)cc2C1c1ccccc1 (configuration not stated)	97.4	-5.5	3.18µM*	-5.5	11.6
Cc1c(O)ccc2c(CN3CCN(CCO)CC3)cc(=O)oc12	0.6	-27.4	1.7%	6.6	-308.5
COCCN1C(=O)C(=O)/C(=C(/O)c2ccc(S(=O)(=O)N3CCOCC3)cc2)C1c1ccc(O)cc1 (configuration not stated)	-10.9	.	6.0%	.	-0.1
O=C(COc1ccc(Cl)cc1[N+](=O)[O-])N1CCCCCC1	-2.9	.	-1.8%	2.6	0.4
CCCCCCSc1cccc(-c2nc3ccc(C)cn3c2NCc2ccccc2)c1	4.6	.	.	.	-0.5
CCCOC(=O)Nc1sc2c(c1C(N)=O)CCCC2	-1.0	.	-3.0%	-2.2	-1.8
COC(=O)Cc1c(C)c2ccc(OC(C)C)cc2oc1=O	2.1	.	-0.6%	.	0.3

Screening results: PubChem BioAssay, several laboratories

Some of the compounds tested. The share of hits here may be higher or lower than overall.
